High-throughput results from PubChem.
Menin-MLL FL inh – displaces fluorescein MLL peptide from human menin; Fluorescence polarization, fluorescein-MLL peptide displacement from menin; FP activity change, % at 61.4 µM; 290,000 tested, under 10 active; AID 1766; inconclusive = falling polarisation curve, or a change in total fluorescence; inactive = total fluorescence flat and polarisation flat or rising; no compound was filed as active; the % refers to the polarisation; negative = inhibition;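 further: % of control where 0% means no effect; inhibitors lower the polarisation; unlabelled MLL peptide was the positive control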
ClpP mod – qHTS Assay for Activators of ClpP; ATP-dependent Clp protease proteolytic subunit (Bacillus subtilis (strain 168)), P80244; purified B. subtilis ClpP, FRET peptide cleavage, 20 min; Potency, µM (highest dose often 57.5 µM), without a hit: top-dose activity change, negative = active; 340,000 compounds, 1.9% hits; AID 651965, 2013; active = well fitted falling curve with a large enough effect; inconclusive = small, poorly fitted or top-dose-only effect; inactive = no such curve, though single readings can be large or run the other way; further: potency means the concentration at half of the fitted maximal effect; the source files actives as falling curves though it sought activators and does not explain the sign; nearly all actives have a fitted effect of over 65% in size; many hits overshoot -100%
Target sequence (P80244 whole entry, looked up): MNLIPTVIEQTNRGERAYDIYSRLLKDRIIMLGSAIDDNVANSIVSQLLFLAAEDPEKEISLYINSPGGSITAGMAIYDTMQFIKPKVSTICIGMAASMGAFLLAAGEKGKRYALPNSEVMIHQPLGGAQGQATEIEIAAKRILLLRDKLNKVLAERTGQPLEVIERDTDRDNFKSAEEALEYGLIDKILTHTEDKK
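FRET quenching reversal measured ClpP activation: 10 microg/mL B. subtilis ClpP at pH 8 with the FRET-FV decapeptide, read at 430 nm after 320 nm excitation. The 20-min minus 0-min signal was scaled between DMSO/no-enzyme wells and ADEP (5.8 microM final).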
PINK1 expr mod – PINK1 expression modulation; PINK1 immunofluorescence, high-content cytometry, 24 h; 410,000 compounds, 0.2% hits; Potency, µM (top dose mostly 76.6 µM), inactives show top-dose activation (PINK1 increase), actives largely listed as activators; AID 624263; active = well fitted activation curve with a large enough effect; inconclusive = small, poorly fitted or top-dose-only effect; inactive = flat fitted curve, though single readings scatter; cell line not stated here;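 further: potency means the concentration at half of the fitted maximal effect; % of control where 0% means no effect; nearly all actives have a fitted effect of over 65% in size; a mitochondrial uncoupler was the plate control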
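Decision-based qHTS: stable cells, 24 h exposure to five compound concentrations, CCCP as control. Fixed cells stained for PINK1 plus nuclear, mitochondrial and cell markers, cytometer read.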
TRPML1 ag – human mucolipin-1 channel agonism | activation, % (test concentration not listed) | 410,000 compounds, 0.12% hits | TRPML1-expressing cells, Ca2+ dye fluorescence, FDSS; host cell line not named in the record; reference of the full effect not given here | AID 624414; in the data active = activation above about 50%; inconclusive = about 30% to 50%; inactive = below about 30%; further: 0% is about no effect; the text of the record puts the active cut at 80%
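Tet-induced TRPML1-DL cells, 1,500 per well, cultured overnight, were loaded with a no-wash Ca2+ dye for 45–90 min. Calcium fluorescence was recorded on the FDSS for 110 s after compound addition, before the EC80 agonist (4 uM 54-4) was added.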
TRPML1 blocker – blocks the human TRPML1 channel | Q9GZU1 | TRPML1-inducible cells, Ca2+ dye fluorescence, FDSS; hits give low values; inhibition of EC80 agonist-evoked calcium signal | activity change, negative = inhibition, % (concentration not given with the values) | 390,000 compounds, 0.02% hits | AID 624415; in the data active means activity change below about -50%; inconclusive means about -30% to -50%; inactive means above about -30%;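 further: stimulus is agonist 54-4 at its EC80 concentration; on the % scale 0 is the no-effect control and ±100 the full control effect; the text of the record puts the active cut at -80%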
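Tet-induced TRPML1-DL cells loaded with Ca8 no-wash calcium dye were read kinetically on FDSS. Compound addition was followed by EC80 agonist 54-4 (4 uM final); inhibition was read over 110 s.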
TRPV1 PAM – potentiators of human vanilloid receptor 1 (TRPV1); Q8NER1; TRPV1-expressing cells, Fluo-8 calcium influx, capsaicin EC20 potentiation; host cell line not named in the record; control for the full effect not named in the record; potentiation, % at 8.33 µM; 320,000 compounds, 0.02% hits; AID 540277; active means potentiation above 80%; inconclusive means 30% to 80%; inactive means below 30%; further: 0% is about no effect
Target sequence (Q8NER1 whole entry, looked up): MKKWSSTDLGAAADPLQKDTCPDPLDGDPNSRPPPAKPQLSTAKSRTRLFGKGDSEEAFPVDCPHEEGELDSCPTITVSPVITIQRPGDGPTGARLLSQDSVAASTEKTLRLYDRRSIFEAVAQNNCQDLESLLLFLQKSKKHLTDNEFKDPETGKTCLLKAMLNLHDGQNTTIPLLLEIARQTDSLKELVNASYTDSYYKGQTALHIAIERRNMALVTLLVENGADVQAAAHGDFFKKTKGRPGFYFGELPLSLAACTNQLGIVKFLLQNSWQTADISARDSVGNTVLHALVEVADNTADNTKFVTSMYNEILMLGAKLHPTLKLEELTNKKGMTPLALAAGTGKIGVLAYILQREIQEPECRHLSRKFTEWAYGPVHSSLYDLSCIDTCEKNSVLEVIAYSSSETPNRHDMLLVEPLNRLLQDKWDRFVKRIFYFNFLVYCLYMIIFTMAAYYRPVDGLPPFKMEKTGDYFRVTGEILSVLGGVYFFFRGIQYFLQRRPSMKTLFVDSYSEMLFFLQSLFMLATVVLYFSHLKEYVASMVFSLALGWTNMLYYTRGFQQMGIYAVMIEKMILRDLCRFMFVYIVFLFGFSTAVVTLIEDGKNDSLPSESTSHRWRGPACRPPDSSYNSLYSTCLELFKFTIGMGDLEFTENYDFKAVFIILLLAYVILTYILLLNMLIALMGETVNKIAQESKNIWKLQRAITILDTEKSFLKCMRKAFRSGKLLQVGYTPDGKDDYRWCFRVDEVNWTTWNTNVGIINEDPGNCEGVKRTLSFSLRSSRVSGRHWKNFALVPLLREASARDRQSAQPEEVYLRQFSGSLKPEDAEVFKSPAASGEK
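TRPV1-expressing cells were cultured overnight at 35.5C and loaded with Fluo-8 calcium dye for 40 to 90 min at room temperature. After a 10 s baseline, compound was added and calcium influx was read kinetically for 3 min (ex 480/em 520 nm).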
Sfp inh – blocks B. subtilis Sfp PPTase activity; Q9F4F7; Potency, µM, without a hit: max response, negative = inhibition, usual class: inhibitors; 310,000 compounds, 3.5% hits; AID 1490; Biochemical Sfp PPTase activity, qHTS; active means well fitted inhibition curve with a large enough effect; inconclusive means small, poorly fitted or top-dose-only effect, or another doubt; inactive means no such curve, though single readings can be large or run the other way;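 further: the enzyme is Sfp with the accession as filed and its product quenches rhodamine fluorescence; potency means the concentration at half of the fitted maximal effect; 0% = enzyme reaction without inhibitor and -100% = no enzyme wells; top concentration of the series not given in the record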
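Fluorescence-quenching assay with 15 nM Sfp, 5 uM rhodamine-CoA and 12.5 uM BHQ-2-labelled ybbR peptide in pH 7.6 Hepes/MgCl2 buffer. Enzyme was pre-incubated with compound for 15 min at room temperature. Rate was taken from the 30-min fluorescence change (525/598 nm).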
An asterisk follows results filed as active; u = inconclusive; x = not tested or not shown; & = joins results of further samples; [ ] = remark or other dose.

SMILES	Menin-MLL FL inh	ClpP mod	PINK1 expr mod	TRPML1 ag	TRPML1 blocker	TRPV1 PAM	Sfp inh
COc1cc(C(=O)Oc2c(Sc3ccccc3)c(C)nn2-c2ccccc2)cc(OC)c1OC	x	-0.7%	2.5%	0.5	-10	x	x
CNc1nc(SC)nc(N(C)C#N)n1	5.5	-0.1%	0.9%	0.5	-18	-1	18%
Cc1cc(N2CCC(C(=O)Nc3ccccc3Cl)CC2)n2nc(C)c(-c3ccc(Cl)cc3)c2n1	x	-23%	1.8%	0.2	-3	x	x
CCS(=O)(=O)Nc1ccc(-c2ccc(NS(=O)(=O)CC)c(OC)c2)cc1OC	2.0	11µM*	0.8%	0.4	3	u	-8%
C/C(=N\NC(=O)COc1ccc2ccccc2c1)c1cccs1	-5.6	0.8%	-0.7%	0.4	21	-2	20%
COc1cc2[nH]c(=S)nc(NCc3ccc(Cl)cc3)c2cc1OC	-1.1	-0.9%	2.0%	1.3	75	6	u
Cc1cccc(C)c1C(O)c1ncc(-c2cccc3ccccc23)[nH]1 (stereo not given)	x	5.4%	1.6%	-1.1	x	x	x
Cc1ccc(S(=O)(=O)c2nc(S(=O)(=O)CCO)sc2N2CCOCC2)cc1	x	1.9%	-0.4%	-0.3	21	4	7%
NC(=O)c1sc2nccc(Nc3ccccc3)c2c1N	0.5	-20%	-7.7%[38.3 µM]	-0.7	1	10	40µM*
COc1cccc(CNC(=O)CCS(=O)(=O)c2cc3c(cc2C)NC(=O)CO3)c1	-2.4	1.2%&0.0%	1.1%&0.0%	-0.3&2.7	-4&7	-7	7%
O=C(Nc1ccc(S(=O)(=O)N2CCCCC2)cc1)C1CC1	-1.5	x	-2.9%	0.0	9	-9	-1%
Fc1ccc(Nc2nc(NCc3ccccc3)nc3ccsc23)cc1	x	u	2.6%	-0.5	x	x	x
COC(=O)c1cc2n3ccccc3c(C)c(-c3ccccc3)c-2c1C(=O)OC	u	32µM*	-1.7%	0.8	-3	u	-1%
CC1=C(C#N)C(c2cccnc2)C2=C(CC(C)(C)CC2=O)N1 (stereo not given)	0.4	14µM*	-0.3%	-0.9	33	-1	10%
O=S1(=O)c2ccccc2Nc2ccccc21	2.2	x	-0.2%	-0.9	11	u	6%

An excerpt from above in order of the Menin-MLL FL inh value, highest first.
Compound | Menin-MLL FL inh
CCS(=O)(=O)Nc1ccc(-c2ccc(NS(=O)(=O)CC)c(OC)c2)cc1OC | 2.0
CC1=C(C#N)C(c2cccnc2)C2=C(CC(C)(C)CC2=O)N1 (stereo not given) | 0.4
O=C(Nc1ccc(S(=O)(=O)N2CCCCC2)cc1)C1CC1 | -1.5

New compounds follow.
SMILES	Menin-MLL FL inh	ClpP mod	PINK1 expr mod	TRPML1 ag	TRPML1 blocker	TRPV1 PAM	Sfp inh
O=P(O)(CCc1ccccc1)C(O)c1ccccc1 (stereo not given)	-1.7	-2.2%	-1.8%	-0.4	-2	-5	-3%
CCn1c(SCCN2CCCCC2)nc2c1c(=O)n(C)c(=O)n2C	x	x	1.9%	0.3	1	x	x
CCCCSc1nnc(-c2ccc(NC(=O)CCc3ccccc3)cc2)n1C	-0.3	-12%&-7.2%	7.5%[38.3 µM]	-0.6&-1.2	5	7	12%
COc1cc(C2C(C#N)=C(N)Oc3cc(C)n(CCc4ccccc4)c(=O)c32)cc2c1OCO2 (stereo not given)	7.2	-13%	5.6%	2.0	-3	-4	22%
CCOc1ccc(NC(=O)c2cccc3c2C(=O)N(CC2CCCO2)C3)cc1 (stereo not given)	1.4	1.9%	2.5%	-0.1	-15	-15	-1%
CNC(=S)N1N=C(c2ccccc2)CC1c1ccc(OC)c(OC)c1 (stereo not given)	3.1	-1.3%	3.7%	-0.5	0	-15	-13%
NC(=O)Nc1ccc(C(=O)OCC(=O)NCc2ccc3c(c2)OCO3)cc1	x	-10%	1.7%	0.2	31	-6	x
COc1cc2c(cc1OC)C(C(=O)NCc1ccco1)C1c3ccccc3CCN1C2=O (stereo not given)	11	-5.8%	-1.1%	-1.0	18	11	18%
CCN(CC)CCCNS(=O)(=O)c1ccc(OC)cc1	-1.3	-1.6%	3.7%[38.3 µM]	0.0	-9	16	15%
CC(=O)N1CCN(C(=O)C(Cc2ccccc2)NC(=O)c2ccccc2)CC1 (stereo not given)	x	0.5%	2.6%	-0.8	7	9	x
CC(=O)c1c(C(C)=O)c(C)n(Cc2ccccc2)c1C	-0.3	0.4%	1.2%[38.3 µM]	0.4	1	1	10%
COc1ccccc1Nc1nc(N)nc(N)c1S(=O)(=O)c1ccccc1	x	-3.4%	1.0%	3.6	14	x	x
COCCN(Cc1cc2cc(C)ccc2[nH]c1=O)S(=O)(=O)c1ccc(Cl)cc1	2.6	u	1.0%	0.8	9	-4	21%
Nc1ccc2c(c1Cl)C(=O)c1ccc(N)c(Cl)c1C2=O	-1.2	-0.8%	0.6%	-0.6	-2	-7	-11%
CCOC(=O)N1CCN(c2ncc(C(F)(F)F)cc2Cl)CC1	-6.0	x	5.6%	0.7	6	-20	10%
Cc1ccc(CSc2nnc(CCNC(=O)OC(C)(C)C)o2)cc1	0.8	-8.1%&-0.2%	-0.7%&2.0%	0.6&1.9	36&7	4	18%
CN(C)C(=O)C(Sc1ccc(S(=O)(=O)N2CCCC2)cn1)c1ccccc1 (stereo not given)	x	-1.2%	-1.1%	1.0	11	7	x
CCCCOP(=O)(c1ccc(N(C)C)cc1)C(O)c1ccncc1 (stereo not given)	2.6	-4.3%	0.8%	-0.2	-10	-10	6%
COc1ccc(CN2CCN(C(=O)CC(C)C)CC2)cc1OC	-1.8	-1.7%	-0.9%	0.9	30	-15	u
O=C(NCc1ccccc1)c1ccc(NC2=NC3CS(=O)(=O)CC3S2)cc1 (stereo not given)	2.0	-1.2%	1.8%	-1.3	17	1	21%
Cc1cc(Nc2nc3ccccc3nc2Cl)n(-c2ccc([N+](=O)[O-])cc2)n1	0.6	0.8%	u	0.8	21	-1	-10%
CC(=O)Nc1ccc(N2C(=O)CC(Sc3nc(C)cc(C)n3)C2=O)cc1 (stereo not given)	-8.2	-2.1%	-1.9%	-1.1	-2	4	6%
N#CC1=C(N)Oc2n[nH]c(-c3ccncc3)c2C1c1ccsc1 (stereo not given)	-0.9	-2.5%	3.4%[38.3 µM]	-0.1	2	9	15%
COc1ccc(NC(=O)NCc2cccnc2)c(OC)c1	x	-1.4%	-1.0%	0.1	-4	0	3%
COc1ccc(NC(=O)C(=O)NCCc2csc3nc(-c4ccccc4F)nn23)cc1OC	x	-1.5%	0.9%	0.5	26	x	x
COc1ccc(CNC(=O)C(c2ccc(C)o2)N(C(=O)c2snc(C(N)=O)c2N)c2ccccc2OC)cc1 (stereo not given)	-0.6	x	0.0%	0.7	44	-4	1%
COc1ccc(C2OCC3(CO2)SC(=O)NC3=O)cc1OC (stereo not given)	0.0	x	-1.9%	1.7	-10	-17	11%
N=c1n(CCN2CCCCC2)c2ccccc2n1CC(=O)c1cccs1	-3.5	x	0.9%	1.1	8	x	-5%
CCc1nnc(NC(=O)c2cccc(OC)c2)s1	1.2	-1.3%	-3.2%	0.3	-16	10	-5%
Cn1c(CNC(=O)c2ccco2)nnc1SCC(=O)Nc1ccc(Br)cc1F	-1.1	0.9%	0.5%	-0.1	22	-4	4%
Cc1ccc(Cl)cc1NC(=O)c1oc2ccc(S(=O)(=O)N3CCCCC3)cc2c1C	x	-5.5%	1.3%	0.5	5	x	x
O=C(N/N=C/c1cc(Br)c(O)c([N+](=O)[O-])c1)C(O)(c1ccccc1)c1ccccc1	x	-2.3%	2.7%	3.7	6	x	x
Cn1ccc2c(N3c4ccccc4CCc4ccccc43)cc3c(c21)C1CCC3C1 (stereo not given)	x	-9.0%	17%	2.9	15	x	x
CCC(C)NC(=O)CN(c1ccc(OC)cc1)S(=O)(=O)c1ccc(NC(C)=O)cc1 (stereo not given)	0.2	-2.2%	7.2%	0.2	8	3	-19%
COc1cc(OC)cc(-c2c(C#Cc3ccsc3)c3cc(-c4cc(OC)c(OC)c(OC)c4)ccc3n2C)c1	x	4.5%	1.3%	0.4	8	x	x
COc1ccc(N2CCN(S(=O)(=O)c3ccc(C(=O)NCc4ccco4)cc3)CC2)cc1	1.8	0.4%	x	0.1	8	4	25%
Cc1ccc(S(=O)(=O)N2CCN(C(=O)COC(=O)c3c(C)cc(C)cc3C)CC2)c(C)c1	x	0.5%	-0.5%	2.5	-3	9	x
COc1ccc(/C=N/NC(=O)OC(C)(C)C)cc1OC	1.2	-2.3%	0.2%	-0.4	-5	-2	8%
Cc1ccc(CNC(=O)C2CC(c3cccc([N+](=O)[O-])c3)=NO2)cc1 (stereo not given)	-4.9	-4.1%	2.6%	1.8	5	u	-10%
COc1ccccc1C(=O)n1nc(-c2ccco2)nc1SC	-0.7	5.7%	1.7%	0.8	0	19	-18%
O=C(NCCc1ccc(Cl)cc1)c1ccc2c(c1)N(Cc1ccccc1F)C(=O)c1ccccc1S2(=O)=O	x	-1.1%	1.3%	1.6	-5	x	x
CCN(CC)C(=O)c1cccc(-c2csc(C(NC(C)=O)c3ccc(F)c(F)c3)n2)c1 (stereo not given)	x	0.7%	0.2%	-0.6	x	x	x
Cc1ccc(NC2=NCCCCC2)cc1	1.2	-0.9%	-2.6%	-0.2	-2	-2	11%
CCOc1ccc(CCNC(=O)c2sc3nc4n(c(=O)c3c2C)CCC4)cc1OCC	x	2.1%	5.0%	0.0	18	9	16%
CCCCOc1ccc(C2(C)NC(=O)NC2=O)cc1 (stereo not given)	-1.0	x	0.5%	0.3	25	-5	18%
CC1(C)CC(=O)C2=C(C1)N(Cc1ccco1)C(=O)C2(NC(=O)c1ccc(Cl)cc1Cl)C(F)(F)F (stereo not given)	-0.1	-1.2%	26%[38.3 µM]	3.1	19	2	0%
Cc1cc(/C=C(\C#N)c2nc3ccccc3[nH]2)c(C)n1C	u	-0.4%	7.2%	1.9	-10	-5	-6%
COc1ccc(OC)c(NC(=O)c2cc(S(=O)(=O)N3CCCCC3)c[nH]2)c1	-2.2	118%	2.6%	-0.5	-8	1	12%

Outcome played no part in choosing rows, and some 4.4% of all compounds hit somewhere here.
